Bioassay records as filed in PubChem.
Rango complex inh = inhibitors of Rango-importin beta complex formation; Q14974; Rango CFP/YFP FRET sensor + importin beta, 45 min; Potency, µM (titrated, usually from 92.2 µM), inactives show top-dose inhibition of complex formation; 0.031% of 340,000 active; AID 540263; active = rising FRET ratio curve, often small or poorly fitted; inconclusive = mostly compound fluorescence or quenching in the first reads; inactive = flat curves in all reads;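 note: potency is the fitted concentration of half-maximal effect; 0% = DMSO wells and 100% = buffer wells lacking importin beta; nearly all actives have a fitted effect of over 15% in size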
Target sequence (Q14974 whole entry, looked up): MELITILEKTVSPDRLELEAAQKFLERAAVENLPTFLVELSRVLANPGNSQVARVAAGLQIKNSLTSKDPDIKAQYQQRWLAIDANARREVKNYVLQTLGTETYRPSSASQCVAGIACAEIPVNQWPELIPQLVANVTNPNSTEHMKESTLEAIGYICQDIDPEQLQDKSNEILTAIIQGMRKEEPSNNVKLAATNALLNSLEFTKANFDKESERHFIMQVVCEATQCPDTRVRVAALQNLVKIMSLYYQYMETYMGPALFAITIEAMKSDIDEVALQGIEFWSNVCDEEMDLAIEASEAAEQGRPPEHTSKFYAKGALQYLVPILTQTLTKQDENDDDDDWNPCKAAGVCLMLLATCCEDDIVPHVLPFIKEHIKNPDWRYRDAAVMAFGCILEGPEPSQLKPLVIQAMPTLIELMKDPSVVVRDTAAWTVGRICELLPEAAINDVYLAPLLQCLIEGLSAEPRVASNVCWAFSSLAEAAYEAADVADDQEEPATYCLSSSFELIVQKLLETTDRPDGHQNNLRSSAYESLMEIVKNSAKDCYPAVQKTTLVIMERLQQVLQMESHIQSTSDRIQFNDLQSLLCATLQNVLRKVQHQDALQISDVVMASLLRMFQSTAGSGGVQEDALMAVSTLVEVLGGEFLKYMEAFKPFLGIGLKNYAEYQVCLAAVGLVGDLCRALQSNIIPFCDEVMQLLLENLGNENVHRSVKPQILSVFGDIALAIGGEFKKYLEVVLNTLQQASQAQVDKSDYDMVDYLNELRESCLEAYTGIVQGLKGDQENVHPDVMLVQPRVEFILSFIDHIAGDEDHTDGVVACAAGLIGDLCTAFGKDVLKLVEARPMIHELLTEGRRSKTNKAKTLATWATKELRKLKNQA
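Inhibition scored from the CFP 486 nm/YFP 530 nm FRET ratio 45 min after adding 0.125 microM importin beta to 50 nM Rango biosensor preincubated 5 min with compound (room temperature, PBS with DTT, Tween-20, BSA). No-importin wells as positive control.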
Rango dissoc inh = inhibitors of RanGTP-induced Rango-importin beta complex dissociation | 0.071% of 340,000 active | Biochemical FRET Rango-importin beta, RanGTP-induced dissociation | Potency, µM (top dose mostly 46.1 µM), without a hit: top-dose activity change, negative = inhibition | O95149+P62826; active means falling FRET ratio curve, often poorly fitted, with flat reads before Ran was added; inconclusive means other falling curves, or compound fluorescence or quenching; inactive means flat or rising ratio curve;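 note: potency is the fitted concentration of half-maximal effect; % of control where 0% means no effect; nearly all actives have a fitted effect of over 45% in size; -100% = wells without RanGTP and RCC1; the record marks most hits as doubtful in a second field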
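Rango FRET biosensor (snurportin-1 IBB flanked by N-terminal EYFP and C-terminal CFP10) at 0.1 uM, with 0.25 uM importin beta in PBS, 1mM DTT, 0.02% Tween-20, 0.1% BSA. 0.6 uM Ran, 2mM GTP and 0.2 uM RCC1 were then added for 45 min at room temperature. Inhibition read as loss of FRET rise.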
miR-21 FLuc = miR-21 reporter, rising signal. HeLa miR-21 FLuc reporter, luciferase, 48 h. Potency, µM (top dose mostly 38.3 µM), for the others: at the top dose reporter change, positive = more light. 340,000 tested, under 10 active. AID 2288; active = well fitted rising curve with a large enough effect; inconclusive = small, poorly fitted or top-dose-only effect; inactive = no such curve, though single readings can be large or run the other way;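 note: % of control where 0% means no effect; miR-21 action dims this reporter so a rising signal means less miR-21 action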
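Using DMEM plus 10% FBS, HeLa miR-21-FLuc cells are incubated with test compounds (final up to about 40uM) for 48 hours; firefly luciferase signal is then imaged following reagent-mediated lysis.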
GLA inh pH 4.5 = alpha-galactosidase A (human) inhibition, pH 4.5; purified enzyme, 4-MU-alpha-Gal fluorescence, pH 4.5; activity change, negative = inhibition, % at 105 µM; 230,000 tested, under 10 active; AID 1467; inconclusive = small, poorly fitted or top-dose-only inhibition, or a rising curve; inactive = flat fitted curve, though single readings scatter; no compound was filed as active;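 note: 0% = full activity with enzyme and -100% = basal without enzyme; dose as in the result columns while the protocol names 77 µM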
* marks the source's active call; other numbers are inactive results; ? = inconclusive; / = not tested or not shown; & = joins results of further samples. A portion of the library; rates above refer to the full screens.

SMILES	Rango complex inh	Rango dissoc inh	miR-21 FLuc	GLA inh pH 4.5
COC1=CC(=O)C(O)=C(CCCCCCC/C=C/CCCCCCCC2=C(O)C(=O)C=C(OC)C2=O)C1=O	-4.7%	-4.8%	/	/
Cc1ccc(-c2csc3ncn(CC#N)c(=O)c23)cc1	-0.4%	11.1%	0.4%	-3.0
O=C(CCCc1c[nH]c2ccccc12)NCc1ccc2c(c1)OCO2	3.5%	2.2%	-0.2%	-8.0
O=C(NCc1ccco1)c1cc2ccc(O)cc2oc1=O	?	?	-0.7%	?
COc1ccc(NS(=O)(=O)c2cc(NC(=O)CC(=O)c3ccc([N+](=O)[O-])cc3)ccc2C)cc1	-3.3%	11.7%	-6.0%	0.1
CSCc1ccc(C(=O)N2CCCC(Nc3ccc4c(c3)OCCO4)C2)o1 (stereo unspecified)	-2.0%	-5.2%	-5.1%	/
CN(c1ccc(OCC(=O)N2CCCCC2)cc1)S(=O)(=O)c1cccs1	-1.6%	10.1%	-9.4%	-8.4
O=C(NCC1CCCO1)c1nn2c(C(F)(F)F)cc(-c3cc(Br)cs3)nc2c1Br (stereo unspecified)	?	?	3.5%	/
COc1c(O)cc2c(c1O)C(=O)CC(c1ccccc1)O2 (stereo unspecified)	/	/	-50.3%	-0.5
CCOC(=O)c1ccc(N2C(=O)CC(N(C)CCc3ccc(OC)c(OC)c3)C2=O)cc1 (stereo unspecified)	3.6%	?	-6.5%	-4.7
O=C(c1ccc(F)cc1)C1CCN(Cc2ccc(F)cc2)CC1	4.8%	-21.5%	16.4%	/
Cc1ccc(SC(C)C(=O)NCCC2=CCCCC2)cc1 (stereo unspecified)	-2.1%	-4.7%	-13.7%	-11.7
Cc1ccc(C(=O)N/C(=C\c2sccc2C)C(=O)NCCCN2CCOCC2)cc1	2.5%	0.1%	0.2%	/
Cc1cc(-c2nnc(SCC(=O)Nc3ccccc3C(F)(F)F)n2N)n[nH]1	-5.9%	-12.7%	-7.9%	/
Cc1ccc(NS(=O)(=O)c2ccc(-c3ccc(=O)[nH]n3)o2)cc1	-0.4%	10.1%	-6.6%	/
COCCNC(=S)N1CCN(Cc2cccc(OC)c2)CC1	-2.4%	-7.5%	-0.5%	12.9
O=C(NNC(=O)c1ccccc1[N+](=O)[O-])c1ccc(NC(=O)c2ccccc2)cc1	2.9%	-6.5%	-24.5%	/
Cc1ccc(S(=O)(=O)N/N=C/c2cccn2-c2ccc(Cl)cc2)cc1	1.7%	0.8%	-16.2%	/
COC(=O)c1cc(C(=O)OCC(=O)c2ccc[nH]2)cc([N+](=O)[O-])c1	-5.1%	9.3%	/	/
O=C(O)CCC(=O)Nc1ccc(Br)cn1	0.3%	12.1%	-3.7%	-3.4
CC(C)c1ccc(CC(C)C2C3=C(CCCC3=O)OC3=C2C(=O)CCC3)cc1 (stereo unspecified)	1.5%	0.6%	-3.2%	-9.3
O=C(O)CSc1nc(-c2ccc(Cl)cc2)nc2c1oc1ccccc12	-1.1%	16.6%	-1.4%	-4.9
O=C(Cn1cc(S(=O)(=O)Cc2cccc(F)c2)c2ccccc21)N1CCOCC1	3.1%	1.5%	-0.2%	/
Nc1nnc(CSc2ccc(Cl)cc2)s1	7.1%	7.6%	-24.6%	1.4
COc1cc2c(cc1NC(=O)CCCCCN1C(=O)CCC1=O)oc1ccccc12	-0.7%	8.4%	1.2%	-1.9
Cc1onc(C(=O)N2C(C)CCCC2C)c1[N+](=O)[O-] (stereo unspecified)	2.7%	0.6%	-5.3%	1.1
CCOc1ccc2ccccc2c1/C=N/NC(=O)c1cc(C)[nH]n1	-1.3%	-4.0%	-4.0%	/
COC(=O)c1sccc1NC(=O)Nc1ccc(OC)cc1OC	0.1%	6.9%	-4.7%	/
CCOC(=O)N1CCN(C(=O)c2ccc(OC)c(OC)c2)CC1	4.3%	16.9%	-2.0%	10.0
O=C(NCc1ccc(F)cc1)c1cc2c(s1)CCCC2	-1.1%	9.4%	-20.2%	3.8
Cn1nnnc1SCc1nc2scc(-c3ccccc3)c2c(=O)[nH]1	2.1%	-9.9%	-1.6%	1.4
Cc1ccc(Oc2nc3ccccc3n3c(C)nnc23)c(C)c1	-1.7%	2.8%	-4.9%	5.0
CN1CCN(CC(=O)NC23CC4CC(CC(C4)C2)C3)CC1	2.9%	-8.2%	1.3%	-5.9
CC(NC(=O)C1CCC1)c1ccc(Cl)cc1 (stereo unspecified)	7.0%	16.4%	-5.1%	-3.4
COc1cccc(-n2c(Cc3cc(=O)[nH]c(=O)[nH]3)nnc2SC(C)C)c1	-0.6%	-2.9%	-0.9%	3.6
Cc1cnc(CN2CCCC(C(=O)c3ccc4c5c(cccc35)CC4)C2)[nH]1 (stereo unspecified)	-3.3%	3.7%	-1.1%	5.3
C=C1c2cccc(OC)c2O[C@H](C(=O)OCC)[C@@H]1CCCCCC	-1.0%	19.3%	/	-12.3
O=C(Nc1ccc2c(c1)OCO2)C1CC(=O)N(c2ccc3c(c2)OCCO3)C1 (stereo unspecified)	?	-0.6%	-2.3%	-2.3
CC(=O)Nc1nc2ccccc2n1CCN(C)C	2.5%	15.6%	-5.7%	9.6
CCOC(=O)C1CCCN(C(=O)COc2ccccc2O)C1 (stereo unspecified)	0.8%	-3.0%	0.3%	-5.1

Sorted by value in Rango dissoc inh (low to high): four of the compounds above
SMILES	Rango complex inh	Rango dissoc inh	miR-21 FLuc	GLA inh pH 4.5
O=C(Nc1ccc2c(c1)OCO2)C1CC(=O)N(c2ccc3c(c2)OCCO3)C1 (stereo unspecified)	?	-0.6%	-2.3%	-2.3
Cc1ccc(Oc2nc3ccccc3n3c(C)nnc23)c(C)c1	-1.7%	2.8%	-4.9%	5.0
Cc1cnc(CN2CCCC(C(=O)c3ccc4c5c(cccc35)CC4)C2)[nH]1 (stereo unspecified)	-3.3%	3.7%	-1.1%	5.3
CC(=O)Nc1nc2ccccc2n1CCN(C)C	2.5%	15.6%	-5.7%	9.6

(more compounds)
SMILES	Rango complex inh	Rango dissoc inh	miR-21 FLuc	GLA inh pH 4.5
CCOc1ccc(N/C(SC)=C(/C#N)C(N)=O)cc1	-0.2%	20.4%	1.4%	-10.3
O=C(CN1C(=O)CCSc2ccccc21)Nc1ccc2c(c1)OCCO2	0.0%	-1.0%	-3.4%	8.4
Cn1cccc1C(=O)NC(=O)COC(=O)CC12CC3CC(CC(Br)(C3)C1)C2	0.8%	-6.8%	-2.0%	-1.2
O=C(CSc1nc2c(sc3ccccc32)c(=O)n1CCCN1CCCC1)NCc1ccccc1	3.2%	17.9%	-17.6%	7.9
C[C@]1(C(=O)NCCCNc2ncc(C(F)(F)F)cc2Cl)C=C[C@@H](Cc2ccccc2)N1C(=O)c1ccccc1	-4.4%	1.5%	0.8%	-20.7&-14.3
CCCCn1c(N)c(N(CCC(C)C)C(=O)CSc2nc3ccccc3n2C)c(=O)[nH]c1=O	?	?	/	/
CN(C)Cc1c(C(=O)N/N=C/c2ccoc2)nnn1-c1nonc1N	-1.9%	1.4%	0.7%	/
C=CCn1cc(-c2ccccc2)cc(C#N)c1=O	0.4%	-8.7%	-10.8%	?
O=C(CCC(=O)N1CCOCC1)NCCc1ccc(Cl)cc1Cl	0.2%	7.5%	-2.4%	/
O=C(CNC(=O)c1ccc(C(F)(F)F)cc1)NC1CC1	-0.7%	6.8%	/	/
O=C(CCNC(=O)c1ccccc1Cl)NCC1COc2ccccc2O1 (stereo unspecified)	2.7%	1.4%	/	/
CC(C)Cn1c(-c2cc(Br)ccc2F)nc2c1c(=O)[nH]c(=O)n2CC(C)C	0.0%	-15.2%	8.0%	/
Cc1ccc(NC(=S)N(CCC(C)C)C(C)c2ccncc2)c(Cl)c1 (stereo unspecified)	-2.5%	-19.4%	-6.5%	-18.3
Cc1cc(C)c(S(=O)(=O)N2C=CC(C(F)(F)F)=NCC2)c(C)c1	0.3%	-6.1%	-0.4%	-9.3
CCOc1ccc(N(C(C)=O)c2nc(C)cc(C)c2C#N)cc1	0.7%	12.0%	-4.6%	-2.7
O=S(=O)(Nc1nc2ccccc2s1)c1ccc(Cl)s1	2.4%	-11.0%	-0.6%	-2.7
COc1ccc(NS(=O)(=O)c2cc(NC(=O)Cn3cnc4c3c(=O)n(C)c(=O)n4C)ccc2C)cc1	-0.2%	1.0%	4.2%	2.7
COc1ccc2[nH]c(C)c(CCNC(=S)Nc3cc(C)ccc3C)c2c1	1.1%	3.5%	-1.4%	1.5
O=C(Cc1cccc2ccccc12)N/N=C/c1ccc2cccc(O)c2n1	-1.5%	-0.1%	-8.0%	0.6
Cc1ccc(OCC(=O)c2c[nH]c3ccccc23)c([N+](=O)[O-])n1	-0.1%	-15.1%	-39.2%	-10.9
COC(=O)c1ccc(NC(=O)c2ccccc2NS(C)(=O)=O)cc1	0.1%	2.2%	-17.0%	-0.1
COc1ccc(-n2nc(C(=O)N3CCN(c4ccc(F)cc4)CC3)c3ccccc3c2=O)c(OC)c1	0.7%	16.4%	1.7%	-2.4
COc1ccc(CCNC(=O)Nc2cccc([N+](=O)[O-])c2)cc1	3.5%	3.2%	6.1%	-0.1
O=C(CCNC(=O)c1ccc([N+](=O)[O-])cc1)Nc1cccc(S(=O)(=O)N2CCCCCC2)c1	-1.1%	-20.1%	/	/
CCOCCCNc1ncnc2c1nc1n2CCCC1	-2.0%	-6.9%	-7.4%	/
COC(=O)c1ccc(COc2ccc3c(C)c(C)c(=O)oc3c2C)o1	-1.5%	0.9%	-12.5%	/
O=C(CCc1ccc(S(=O)(=O)N2CCOCC2)cc1)Oc1ccccc1	-0.1%	1.1%	-7.0%	-13.6
CCOC(=O)C1CCN(c2c(NC3CCCc4ccccc43)c(=O)c2=O)CC1 (stereo unspecified)	-4.1%	-17.0%	-8.7%	2.5
CC(=O)Nc1ccc(C(=O)OCc2ccc(Cl)cc2)cc1	0.1%	-2.4%	-22.7%	4.9
CCOc1ncccc1C(=O)OCC(=O)Nc1cc(S(=O)(=O)N2CCOCC2)ccc1C	4.1%	21.2%	9.9%	-1.8
CCOC(=O)c1sc2nc(C)nc(NCc3ccc(F)cc3)c2c1C	?	-15.1%	2.9%	/
COc1cc(OC)c(C2C(C(=O)N3CCOCC3)=C(C)NC3=C2C(=O)CC(C)(C)C3)cc1OC (stereo unspecified)	-1.8%	1.3%	1.8%	-3.1
Cc1ccc(S(=O)(=O)N2CCC(C)CC2)c([N+](=O)[O-])c1	4.2%	9.9%	-5.1%	-10.1
CCc1ccc(NC(=O)c2cccc(NC3=NC4CS(=O)(=O)CC4S3)c2)cc1 (stereo unspecified)	-0.3%	?	-9.7%	/
CC(=O)Nc1ccc(NC(=O)C2CC(=O)Nc3ncnn32)cc1 (stereo unspecified)	-2.4%	-9.1%	0.2%	3.0
O=C1/C(=C/c2ccccc2)N=C(N2CCOCC2)N1c1cccc(Cl)c1	0.7%	-13.6%	-22.4%	0.4
COc1ccc(-c2c(N)nnc3c2[nH]c2ccccc23)cc1OC	?	?	8.7%	-0.4
CCN1CCCC(Sc2nc3c([nH]2)c(=S)n(C)c(=O)n3C)C1 (stereo unspecified)	-3.2%	-5.1%	-0.8%	1.3
O=C(CNC(=O)c1cccc(F)c1)OCC(=O)N1CCN(C(=O)c2ccco2)CC1	-0.6%	-1.3%	0.9%	15.4
C[C@H](NC(=O)Nc1ccc2c(c1)OCCO2)C(=O)O	2.4%	2.5%	-2.3%	1.4
Cc1ccc2c(CC(=O)OCc3nc(N)nc(Nc4ccccc4C)n3)coc2c1	-0.7%	-4.5%	-9.0%	-8.9
Cn1c(NN)nc2sc3c(c2c1=O)CCC3	-0.2%	-4.4%	-0.9%	11.9
CCSc1sccc1C1C(C#N)=C(N)N(c2cccnc2)C2=C1C(=O)CCC2 (stereo unspecified)	?	?	-7.0%	-0.5
COCCn1c(CCC(=O)O)nc2c1c(=O)[nH]c(=O)n2CC(C)C	-3.1%	-13.0%	0.1%	2.0
CCOc1ccc(NC(=O)c2cc(S(=O)(=O)N3CCOCC3)cs2)cc1	-0.4%	1.6%	5.9%	/
COc1ccc(CCCc2nnc(SCC(=O)NN)o2)c(C)c1	?	-23.8%	-2.1%	/
